gsp ag: activates gsp, the McCune-Albright syndrome mutation; gsp mutant cells, cAMP HTRF, 30 min; control for the full effect not named in the record; Potency, µM (series often up to 76.9 µM), for inactives: at the highest dose activation (cAMP increase), most hits filed as activators; actives 0.13% (n = 340,000); AID 624287; active = well fitted activation curve with a large enough effect; inconclusive = small, poorly fitted or top-dose-only effect, or another doubt; inactive = no such curve, though single readings can be large or run the other way; cell line not stated here;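 note: phosphodiesterase inhibitor Ro 20-1724 added with compounds to block cAMP breakdown; potency is the fitted concentration of half-maximal effect; nearly all actives have a fitted effect of over 60% in size; about a fifth of the inactives were tested at one dose only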
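Cells in DMEM/10% FBS with G418 were pretreated with compounds in DMSO plus […] (300 uM stock) for 30 min at 37C. cAMP was measured by HTRF (cAMP-d2 plus anti-cAMP antibody-K) after 30 min at room temperature.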
Sfp PPTase inh: blocks B. subtilis Sfp PPTase activity. AID 1490. Biochemical Sfp PPTase activity, qHTS. Potency, µM, for the others: max response, negative = inhibition, hits mostly inhibitors. Q9F4F7. actives 3.5% (n = 310,000); active = well fitted inhibition curve with a large enough effect; inconclusive = small, poorly fitted or top-dose-only effect, or another doubt; inactive = no such curve, though single readings can be large or run the other way;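 note: the enzyme is Sfp with the accession as filed and its product quenches rhodamine fluorescence; potency is the fitted concentration of half-maximal effect; 0% = enzyme reaction without inhibitor and -100% = no enzyme wells; top concentration of the series not given in the record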
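Fluorescence-quenching assay with 15 nM Sfp, 5 uM rhodamine-CoA and 12.5 uM BHQ-2-labelled ybbR peptide in pH 7.6 Hepes/MgCl2 buffer. Enzyme was pre-incubated with compound for 15 min at room temperature. Rate was taken from the 30-min fluorescence change (525/598 nm).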
Menin MLL FP FL: inhibitors of human menin-MLL interaction, wild-type MLL peptide; FP activity change, % at 61.4 µM; AID 1766; 290,000 tested, under 10 active; Fluorescence polarization, fluorescein-MLL peptide displacement from menin; inconclusive = falling polarisation curve, or a change in total fluorescence; inactive = total fluorescence flat and polarisation flat or rising; no compound was filed as active; the % refers to the polarisation; negative = inhibition;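 note: % of control where 0% means no effect; inhibitors lower the polarisation; unlabelled MLL peptide was the positive control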
ClpP mod: qHTS Assay for Activators of ClpP. actives 1.9% (n = 340,000). Potency, µM (top dose mostly 57.5 µM), for inactives: at the top dose activity change, negative = active. AID 651965, 2013. purified B. subtilis ClpP, FRET peptide cleavage, 20 min; active = well fitted falling curve with a large enough effect; inconclusive = small, poorly fitted or top-dose-only effect; inactive = no such curve, though single readings can be large or run the other way; note: potency is the fitted concentration of half-maximal effect; the source files actives as falling curves though it sought activators and does not explain the sign; nearly all actives have a fitted effect of over 65% in size; many hits overshoot -100%
Target sequence (P80244 whole entry, looked up): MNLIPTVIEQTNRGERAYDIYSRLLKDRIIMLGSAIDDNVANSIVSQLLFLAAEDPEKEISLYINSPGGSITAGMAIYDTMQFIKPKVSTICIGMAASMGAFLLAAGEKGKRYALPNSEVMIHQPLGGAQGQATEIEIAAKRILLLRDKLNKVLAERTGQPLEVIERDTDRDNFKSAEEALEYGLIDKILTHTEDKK
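ClpP 10 microg/mL final, pH 8 Tris/KCl buffer with BSA, glycerol, Tween-20; compound pinned in; FRET-FV substrate; RT 20 min; Ex320/Em430; ΔFRET vs ADEP 5.8 microM, DMSO, no enzyme.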
gsp antag: antagonizes gsp, the McCune-Albright syndrome mutation. gsp-mutant cells, cAMP HTRF, 30 min; control for the full effect not named in the record. Potency, µM (top dose mostly 76.9 µM), for the others: at the top dose activity change, negative = inhibition, most hits filed as inhibitors. actives 0.4% (n = 340,000). AID 624288; active = falling curve of any shape with a large fitted effect; inconclusive = falling curve, mostly with a smaller effect; inactive = flat or rising curve; cell line not stated here;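 note: intracellular cAMP measured with PDE inhibitor Ro 20-1724 present during compound exposure; potency is the fitted concentration of half-maximal effect; % is set by controls: 0 for no effect and ±100 for the full control effect; nearly all actives have a fitted effect of over 65% in size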
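G418-selected cells were plated in DMEM/10% FBS for 16-24 h at 37C, then treated with compounds plus the PDE inhibitor […] (300 uM solution added) for 30 min at 37C. Intracellular cAMP was measured by HTRF after 30 min lysis at room temperature.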
PINK1 expr mod: PINK1 expression modulation | PINK1 immunofluorescence, high-content cytometry, 24 h | Potency, µM (top dose mostly 76.6 µM), inactives show top-dose activation (PINK1 increase), actives largely listed as activators | actives 0.2% (n = 410,000) | AID 624263; active = well fitted activation curve with a large enough effect; inconclusive = small, poorly fitted or top-dose-only effect; inactive = flat fitted curve, though single readings scatter; cell line not stated here;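 note: potency is the fitted concentration of half-maximal effect; % of control where 0% means no effect; nearly all actives have a fitted effect of over 65% in size; a mitochondrial uncoupler was the plate control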
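Stable cell line, 250 cells/well, 12 h attachment; compounds pinned at 5 concentrations, 24 h; CCCP control. Fixed with nuclear dye, primary antibodies 12 h at 10 degrees C, secondary plus cell stain; laser-scanning cytometer read.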
D2 agonist: agonists of human D2 dopamine receptor (beta-arrestin); P14416; DiscoveRx PathHunter D2 beta-arrestin, luminescence, 90 min; 100% = 57 uM dopamine signal; activation, % (test concentration not listed); actives 0.084% (n = 360,000); AID 624465; in the data active = activation above about 40%; inconclusive = about 15% to 40%; inactive = below about 15%; note: compound concentration not given in the record; the text of the record calls up to 30% inactive
Target sequence (P14416 whole entry, looked up): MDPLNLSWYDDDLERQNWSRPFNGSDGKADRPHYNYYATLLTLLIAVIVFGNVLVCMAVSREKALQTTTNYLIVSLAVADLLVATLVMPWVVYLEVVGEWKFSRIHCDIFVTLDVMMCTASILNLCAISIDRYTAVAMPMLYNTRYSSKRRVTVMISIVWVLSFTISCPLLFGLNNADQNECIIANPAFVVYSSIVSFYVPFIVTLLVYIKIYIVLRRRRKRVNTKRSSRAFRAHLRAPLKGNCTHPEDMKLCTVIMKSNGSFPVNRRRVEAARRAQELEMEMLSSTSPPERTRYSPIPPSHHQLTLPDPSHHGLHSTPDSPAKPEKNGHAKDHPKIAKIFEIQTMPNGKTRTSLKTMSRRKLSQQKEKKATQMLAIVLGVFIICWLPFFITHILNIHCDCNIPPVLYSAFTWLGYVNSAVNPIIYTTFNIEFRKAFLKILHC
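Agonist mode: compounds alone added to overnight-plated D2 PathHunter cells for 90 min at 37 C, with 57 uM final dopamine (EC100) defining full response. Beta-arrestin recruitment detected by chemiluminescent reagent, read after 1 h at ambient temperature.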
* hit, by the source's call; ? = inconclusive; . = no result given; & = joins results of further samples; [ ] = dose if it differs, or a comment. Rows were taken by chance; any-hit rate near 5.1%.

No.	SMILES	gsp ag	Sfp PPTase inh	Menin MLL FP FL	ClpP mod	gsp antag	PINK1 expr mod	D2 agonist
1	O=C(NCc1cccnc1)C1CCN(C(=O)c2ccc(Cl)cc2Cl)CC1	22%	15%	3.6	0.4%	4%	1.0%	-3.5
2	O=c1c(Cc2ccccc2)c(O)c2cccc3c4c(n1c23)CCCC4	12%[15.4 µM]	-17%	-1.9	1.2%	-26%	?	-4.8
3	O=C(CCCCCn1c(=S)[nH]c2ccc(N3CCOCC3)cc2c1=O)NCc1ccccc1Cl	-1%[15.4 µM]	7%	-3.6	-3.2%	?	?	-5.5
4	COc1ccc(C2CC(c3cccs3)=NN2C(=O)c2ccc(Br)o2)cc1 (configuration not stated)	-13%	-24%	7.2	?	?	1.2%	-3.8
5	COc1ccc(C2(C)NC(=O)N(CC(=O)Nc3ccc(Br)cc3F)C2=O)cc1OC (configuration not stated)	?	14%	?	.	-6%	2.5%	6.3
6	Cc1ccc(S(=O)(=O)NC2CCCCCCC2)cc1	5%	1%	-1.9	.	5%	3.5%	0.7
7	COc1ccc(-c2cc3ccccc3n2CC(O)CN2CCC(C)CC2)cc1 (configuration not stated)	-30%[inhibitor]	?	-6.7	4.1%	-3%	?	-8.0
8	CCOC(=O)C1=C(COC(=O)c2sccc2C)NC(=O)NC1C (configuration not stated)	?	.	.	-1.3%	3%	-0.4%	3.4
9	CS(=O)(=O)Nc1cccc(-c2nc(N3CCNCC3)c3ccccc3n2)c1	.	-12%	-1.4	.	.	-0.3%	.
10	CCCCN(C=O)c1c(CC)nc2c(OCc3ccc(Cl)cc3Cl)cccn12	.	.	.	0.7%	.	-0.2%	-2.7
11	CCCCN(C(=O)COc1ccc(NC(C)=O)cc1)C1CCS(=O)(=O)C1 (configuration not stated)	?	21%	7.2	.	9%	-2.1%	0.6
12	CCCCCCOc1ccc(N2C(=O)CC(SC(=NCC)NCC)C2=O)cc1 (configuration not stated)	-5%	11%	0.0	2.4%	-8%	2.5%	-5.2
13	COCCN(C(=O)c1csnn1)C(C(=O)NC1CCCCC1)c1ccccc1F (configuration not stated)	-20%	10%	2.3	.	5%	-1.3%	-2.7
14	C[C@@H]1CN([C@H](C)CO)C(=O)c2cccc(NC(=O)NC3CCCCC3)c2O[C@@H]1CN(C)C(=O)Nc1ccc(C(F)(F)F)cc1	16%	.	.	-12%	-32%	5.6%	-2.4
15	O=C(O)c1cccnc1SCC(=O)C12CC3CC(CC(C3)C1)C2	?	-4%	1.9	0.7%	-21%	0.1%	-6.8
16	Cc1n[nH]c(C)c1CCCCOc1ccccc1	28%[15.4 µM]	5%	-0.5	.	.	-0.7%	0.2
17	CN1CCN(CC(=O)Nc2sc3c(c2C(=O)Nc2ccccc2)CCCC3)CC1	-17%	-10%	.	-1.2%	0%	-1.6%	-1.8
18	COc1ccc(C)cc1NC(=O)c1nn(C)cc1Br	12%	13%	5.0	-4.1%	1%	1.7%	-2.7
19	CC(=O)Nc1cccc(NC(=O)CCN2C(=O)c3ccccc3S2(=O)=O)c1	-31%[inhibitor]	.	.	-1.6%	4%	1.8%	-0.4
20	CC1(C(=O)NCc2ccccc2Br)CCN1Cc1ccc(-c2ccccc2)o1 (configuration not stated)	.	.	.	-15%	.	1.0%	2.5
21	CCN(CC)CCSc1nnc2c3ccccc3n(Cc3ccccc3)c2n1	9%	-22%	-1.3	-5.1%	0%	3.4%	-4.6
22	O=C(CN(c1ccccc1)S(=O)(=O)c1ccc(F)cc1)NC1CCCCCC1	-7%[15.4 µM]	11%	.	1.5%	17%	11%	-2.5
23	CCCCOc1ccc(S(=O)(=O)NC(=O)C2(C)CCN2C(=O)c2c(C)noc2C)cc1 (configuration not stated)	.	.	.	2.7%	.	-0.5%	-3.6
24	CCc1ccccc1Nc1nc(N)nc(COC(=O)C2=COCCO2)n1	-10%	.	.	0.7%	2%	2.2%	4.1
25	Cc1cc(NC(=O)/C=C/c2ccccc2Cl)no1	0%	13%	5.3	-4.6%	3%	4.8%	-2.4

No.	SMILES	gsp ag	Sfp PPTase inh	Menin MLL FP FL	ClpP mod	gsp antag	PINK1 expr mod	D2 agonist
26	O=C(CNC(=O)c1ccco1)OCc1cccc(Cl)c1	-10%	6%	3.1	0.1%	6%	2.1%	0.0
27	CC1CCCC(C)N1C(=O)CSc1nnc(COc2cccc3cccnc23)o1 (configuration not stated)	-11%[15.4 µM]	0%	-3.1	.	-2%	0.6%	-3.9
28	Cc1cccc(-c2noc(CCC(=O)NCC3CCCO3)n2)c1 (configuration not stated)	7%	13%	1.3	2.8%	8%	3.9%[38.3 µM]	-1.7
29	O=[N+]([O-])c1cc([N+](=O)[O-])c(Oc2cccc3c2CCCC3)cc1NN1CCCCC1	.	.	.	-4.6%	9%	-0.1%	-2.9
30	CC(C)(C)NC(=O)CSc1ncnc2c1nnn2Cc1ccccc1Cl	-1%	3%	5.0	-0.9%	-3%	-1.3%	-1.5
31	O=C(NCc1ccc(F)cc1)c1cccc(NC2=NC3CS(=O)(=O)CC3S2)c1 (configuration not stated)	4%	12%	0.4	1.6%	2%	-0.2%	-4.0
32	CC(C)(C)c1ccc(C(=O)NCCCn2ccnc2)cc1	1%	6%	0.6	.	4%	1.5%	-0.2
33	NCCc1nnc(SCc2ccccc2F)o1	-3%	3%	-1.6	-0.2%	15%	3.1%[38.3 µM]	1.0
34	Cc1ccccc1NC(=O)Cc1ccccc1	-27%	18%	0.1	-3.7%	0%	-0.3%	-0.6
35	COCCNC(=O)CN1N=C(c2ccc(C)cc2)CCC1=O	-3%[15.4 µM]	26%	?	-4.3%	9%	0.5%	-3.1
36	C=CCc1ccc(OCCCCCN2CCOCC2)c(OC)c1	17%	-21%	0.6	1.7%	13%	2.4%	-3.7
37	O=C(CSc1nc2cc3ccccc3cc2[nH]1)Nc1ccc(F)cc1	-9%	4%	4.2	-18%&4.1%	-28%	2.8%	0.2
38	COC(=O)c1c(S(N)(=O)=O)c2ccccc2n1C	-30%	10%	2.4	28µM*	4%	1.2%	-2.1
39	CC(C)(C)NC(=O)CN(C(=O)c1csnn1)c1cccc2c1CCCC2	11%	15%	-0.4	.	3%	0.6%	0.0
40	CCOc1nc(N2CCOCC2)nc(N2CCOCC2)n1	1%[15.4 µM]	17%	1.7	.	.	-0.7%	0.0
41	CCOC(=O)C1CCCN(c2c(NCCN(CC)c3ccccc3)c(=O)c2=O)C1 (configuration not stated)	-10%	4%	7.6	-0.5%	-15%	-0.1%	-1.1
42	Cc1ccc(Nc2ncccc2C(=O)O)cc1C	.	9%&7%	3.7&0.4	-15%	-17%	0.7%	-6.2
43	CC1CC(C)CN(S(=O)(=O)c2ccc(C(=O)N3CCOCC3)cc2)C1 (configuration not stated)	-22%	8%	.	-1.0%	8%	0.6%	-0.7
44	CN(Cc1ccccc1)S(=O)(=O)c1ccc(NC(=O)C2CCCCC2C(=O)O)cc1 (configuration not stated)	3%	.	.	0.1%	14%	1.7%	1.0
45	CCN(CC)CCNc1nc2cc(OC)c(OC)cc2c2nc(-c3ccccc3)nn12	-10%	-2%	-0.6	-27%	9%	-1.6%	-2.3
46	COc1cc(C(=O)NCC(c2ccco2)N2CCCC2)ccc1OCc1ccccc1 (configuration not stated)	0%	.	.	-3.4%	11%	-1.6%	2.3
47	C=CCC[C@H](Cc1ccc(F)cc1)C(=O)OC[C@@H]1CCCN1C(=O)[C@@H](CC=C)CC(=O)NCCO	.	.	.	0.4%	0%	-0.2%	-0.7
48	O=c1c2ccccc2c(C=Nc2cccc(S(=O)(=O)NC3=NCCCCC3)c2)c(O)n1Cc1ccccc1	?	-1%	-1.0	-0.6%	-19%	-0.3%	-1.9
49	CC(CC(=O)Nc1cccc(S(=O)(=O)N2CCCCC2)c1)c1ccccc1 (configuration not stated)	11%	.	.	0.3%	-8%	0.1%	8.7
50	Cc1cccc(NC(=O)C2Cc3ccccc3O/C2=N\O)c1 (configuration not stated)	3%	1%	7.0	1.5%	5%	14%	-1.0

No.	SMILES	gsp ag	Sfp PPTase inh	Menin MLL FP FL	ClpP mod	gsp antag	PINK1 expr mod	D2 agonist
51	COc1c(Br)cc([N+](=O)[O-])c(OC)c1C(=O)NC(=O)Nc1c(Cl)cccc1Cl	-18%	1%	5.9	.	-18%	5.2%	-3.5
52	CC(=O)Nc1ccc(N(C(=O)CNC(=O)c2ccco2)C(C(=O)NCc2ccco2)c2ccccc2F)cc1 (configuration not stated)	-16%[15.4 µM]	2%	-0.6	.	8%	-1.4%	-0.8
53	O=S1(=O)CC(N2CCC(Cc3ccccc3)CC2)CN1Cc1ccccc1 (configuration not stated)	.	.	.	-0.4%	.	-0.1%	-1.9
54	N=C(N)c1ccc(/C=C/c2ccc(C(=N)N)cc2O)cc1	-17%[15.4 µM]	8%&-10%	5.8&6.0	-1.4%&-15%	?	2.3%&2.6%	-8.3
55	Cc1cc(C)c2sc(NC(=O)CN3C(=O)CCC3=O)nc2c1	?	14%	1.7	-1.9%	3%	-0.2%	6.1
56	O=c1ccn([C@@H]2O[C@H](CNCc3cccc4c3sc3ccccc34)[C@@H](O)[C@H]2O)c(=O)[nH]1	.	.	.	0.9%	.	-0.9%	-2.8

Screening results: PubChem BioAssay, National Center for Advancing Translational Sciences (NCATS)
